AF4-AF9 inh: inhibitors of AF4 peptide binding to AF9, primary screen, biochemical, AlphaScreen, biotin-AF4 peptide, FLAG-AF9, single point | inhibition, % at 10 µM | actives 0.47% (n = 350,000) | AID 651704, 2012;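 active = every replicate reaching a set inhibition limit, whatever the replicate mean, cut at about 25% in these data; inconclusive = mean inhibition reaches that limit but some replicates miss it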;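 note: 0% = plate neutral control median and 100% = total signal loss; the record names both 10 and 1 µM as test concentration; the first replicate is given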
Target sequence (P42568 whole entry, looked up): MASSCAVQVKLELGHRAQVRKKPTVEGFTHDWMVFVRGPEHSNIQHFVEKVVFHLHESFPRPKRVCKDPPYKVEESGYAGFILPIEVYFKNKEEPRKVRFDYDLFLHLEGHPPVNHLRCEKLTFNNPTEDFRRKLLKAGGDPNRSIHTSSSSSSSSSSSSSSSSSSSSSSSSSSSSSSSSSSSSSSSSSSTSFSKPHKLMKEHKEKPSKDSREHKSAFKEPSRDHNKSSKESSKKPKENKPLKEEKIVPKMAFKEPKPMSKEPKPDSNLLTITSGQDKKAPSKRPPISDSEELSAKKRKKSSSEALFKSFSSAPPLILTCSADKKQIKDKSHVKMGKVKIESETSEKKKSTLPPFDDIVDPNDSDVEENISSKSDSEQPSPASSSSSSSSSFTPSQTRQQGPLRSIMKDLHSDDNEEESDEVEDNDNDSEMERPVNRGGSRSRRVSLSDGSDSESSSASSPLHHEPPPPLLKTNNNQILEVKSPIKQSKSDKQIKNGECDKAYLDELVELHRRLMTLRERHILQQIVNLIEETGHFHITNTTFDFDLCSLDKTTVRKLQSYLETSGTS
UCH37 inh: inhibitors of human UCH37 deubiquitinase, primary screen, biochemical, Ub-AMC cleavage, fluorescence; purified proteasome/UCH37; inhibition, % (test concentration not listed); AID 588478, 2011; actives 0.33% (n = 330,000); Ubiquitin carboxyl-terminal hydrolase isozyme L5 (Homo sapiens), Q9Y5K5;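 active = mean of two replicates above 20%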;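 note: 0% = compound-free wells with enzyme and 100% = wells lacking proteasome; stock transfer was 100 nL into about 20 µL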
Target sequence (Q9Y5K5 whole entry, looked up): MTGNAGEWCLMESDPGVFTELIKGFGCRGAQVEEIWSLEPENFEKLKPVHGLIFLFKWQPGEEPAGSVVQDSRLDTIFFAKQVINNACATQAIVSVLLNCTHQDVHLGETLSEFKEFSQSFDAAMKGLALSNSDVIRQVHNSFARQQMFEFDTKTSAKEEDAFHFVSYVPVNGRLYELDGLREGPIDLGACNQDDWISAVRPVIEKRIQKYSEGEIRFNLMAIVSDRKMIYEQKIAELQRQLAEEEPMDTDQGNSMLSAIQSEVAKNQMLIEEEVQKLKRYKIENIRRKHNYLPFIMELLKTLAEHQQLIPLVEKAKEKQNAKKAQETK
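Schedule: 30 min plus 25 min, room temperature / Material: human UCH37 within purified proteasomes / Technique: AMC fluorescence intensity at 355/460 nm / Buffer or medium: pH 7.4 Tris-HCl (50 mM) with ovalbumin, ATP-MgCl2, DTT / Controls: wells without proteasome as full block, compound-free enzyme plus substrate as uninhibited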
Vif A3G: inhibitors of Vif binding to APOBEC3G peptide, primary screen, biochemical, TR-FRET, GST-Vif 1-94, biotin-A3G peptide, dose response retest (AID 1117319). Virion infectivity factor (Human immunodeficiency virus type 1 group M subtype B (isolate …. TR-FRET GST-Vif / biotin-A3G peptide binding; higher % means a stronger effect; test concentration not given here; strong numbers were not always called active. inhibition, %, or IC50 in µM where a hit was titrated. actives 0.57% (n = 260,000);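 active = above the screen mean plus three standard deviations and confirmed in dose response; inconclusive = results disagree or hit not tested in dose response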;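 note: Vif residues 1-94 fused to GST binding biotinylated APOBEC3G peptide 110-148; 0% = full assay without inhibitor and 100% = GST in place of GST-Vif; retest series ran down from 100 µM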
RanGTP-Imp inh: inhibitors of RanGTP-importin-beta interaction, primary screen, biochemical, FRET, CFP-Ran, YFP-importin-beta, homogeneous; cell-free CFP-Ran/YFP-importin-beta FRET ratio; actives 1.1% (n = 300,000); inhibition, % (concentration not given with the values);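 active = most replicates above 15%; inconclusive = exactly half above 15%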;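 note: 0% = DMSO wells and 100% = Ran loaded with GDP instead of GTP; wells of about 40 µL received 100 nL stock; the first replicate is given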
HNF4A DNA FP: change in binding of human HNF4A to DNA, primary screen, biochemical, fluorescence polarization, FITC-DNA; 1 h; activity change, % at 10 µM; Hepatocyte nuclear factor 4-alpha (Homo sapiens), P41235; actives 0.3% (n = 360,000); in the data active = activity change above about 30%, passing the limit was not always enough;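 note: controls were the assay level and a saturating level of protein; the project sought stronger binding though the title names inhibitors; some compounds called inactive have numbers as strong as hits; positive values seem to mean higher polarization but the record does not say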
FGF22 binding: binders of human FGF22 protein, primary screen, FGF22 synaptogenesis inhibitor project, biophysical, thermal shift, single point; actives 1.5% (n = 340,000); calls only at 9.99 µM; recombinant FGF22 thermal shift, SYPRO orange fluorescence; percent of sucrose octasulfate shift, DMSO zero;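 active = melting point raised past a set limit in the mean and every replicate; inconclusive = no clear call; three in four hits are not shown here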
Target sequence (Q9HCT0 whole entry, looked up): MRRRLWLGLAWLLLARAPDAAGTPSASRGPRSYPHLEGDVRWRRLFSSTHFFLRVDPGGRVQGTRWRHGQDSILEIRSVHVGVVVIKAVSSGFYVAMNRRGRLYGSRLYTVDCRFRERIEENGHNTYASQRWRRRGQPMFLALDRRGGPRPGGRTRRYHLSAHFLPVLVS
Ecoli growth: E. coli growth inhibition, primary screen, OD600; actives 0.21% (n = 330,000); OD600 absorbance (concentration not given with the values); Escherichia coli growth, 23 h; stronger effect = lower value;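 active = OD600 absorbance below the run mean of sample wells minus 3.6 SD, in any replicate, cut at about 0.56 in these data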;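 note: stock transfer was 300 nL into about 60 µL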
Starred values were filed as active, the others as inactive; i = inactive; u = inconclusive; x = not tested or not shown; & = joins results of further samples. Some of the compounds tested; the hit share may differ from the screen's.

mol	AF4-AF9 inh	UCH37 inh	Vif A3G	RanGTP-Imp inh	HNF4A DNA FP	FGF22 binding	Ecoli growth
CN(CC(=O)Nc1cccc(S(=O)(=O)N2CCOCC2)c1)CC(=O)Nc1ccc(Cl)c(C(F)(F)F)c1	-0.2	2.0	2%	0.9	-0.5	i	0.66
COc1ccccc1C(=O)NCCC(=O)Nc1ncccc1O	-1.5	5.7	-7%	-0.5	-3.6	i	0.72
COc1ccccc1-c1cc(C(=O)Nc2c(F)cc(F)cc2Br)no1	x	1.9	1%	0.3	-1.0	x	0.68
Cc1ccc(C)c(OCC(O)CN2CCN(CCN3C(=O)c4cccc5cccc(c45)C3=O)CC2)c1 (stereo unspecified)	8.7	-8.0	x	0.8	-6.2	i	0.62
Cc1cccc(N(CC(=O)NCc2ccco2)C(=O)CCC(=O)Nc2ccccn2)c1	x	0.7	10%	-1.1	-1.0	x	0.72
Cc1c(Br)c([N+](=O)[O-])nn1C(C)C(=O)NCC1CCCO1 (stereo unspecified)	-1.9	5.0	-2%	-0.6	33	i	0.65
COc1ccccc1NC(=O)C(CC(C)C)NC(=O)C1CCCCC1 (stereo unspecified)	x	4.3	-3%	0.5	0.9	x	0.69
O=C(Nc1ncc([N+](=O)[O-])s1)C1COc2ccccc2O1 (stereo unspecified)	-1.9	8.0	5%	x	-3.0	i	0.61
O=C(O)c1cccc(CN2C(=O)S/C(=C/c3ccccc3[N+](=O)[O-])C2=O)c1	x	80*	-14%	-0.6	6.8	i	0.7
CCOC(=O)N1CCC(NC(=O)c2cc3c(=O)[nH]c4ccccc4c3n2C)CC1	-2.3	-0.5	6%	2.2	-0.2	i	0.65
CCCCOC(=O)Nc1nccs1	x	2.7	2%	2.4	5.2	x	0.68
CN(Cc1nc2ccccc2c(=O)[nH]1)C(=O)c1ccccc1OCc1ccc(Cl)cc1	-0.1	2.0	2%	x	-0.5	i	0.66
COc1ccc(C)cc1NC(=S)NC12CN3CN(CN(C3)C1)C2	x	3.7	-1%	0.1	x	x	0.66
COc1ccc2nc(N3C(=O)CC(C(C)c4ccccc4)C3=O)sc2c1 (stereo unspecified)	x	1.8	4%	-0.4	-1.2	x	0.68
Cc1ccc(/C=C/S(=O)(=O)Nc2ccc(C)cc2)cc1	-2.3	5.0	-7%	5.3	2.6	i	0.67
O=[N+]([O-])c1ccc(N/N=C/c2cn(-c3ccccc3)nc2-c2ccccc2)cc1	x	x	6%	u	28	x	x

Full records, looked up by structure. Order of screens: AF4-AF9 inh	UCH37 inh	Vif A3G	RanGTP-Imp inh	HNF4A DNA FP	FGF22 binding	Ecoli growth
CCCCOC(=O)Nc1nccs1 reads x	2.7	2%	2.4	5.2	x	0.68
O=C(O)c1cccc(CN2C(=O)S/C(=C/c3ccccc3[N+](=O)[O-])C2=O)c1 reads x	80*	-14%	-0.6	6.8	i	0.7

More structures follow.
mol	AF4-AF9 inh	UCH37 inh	Vif A3G	RanGTP-Imp inh	HNF4A DNA FP	FGF22 binding	Ecoli growth
C=CCn1c(SCc2cc(C(=O)OC)c(C)o2)nnc1-c1ccncc1	x	3.8	18%	-0.1	2.8	x	0.7
Cc1nc(NC(=O)c2ccccc2)sc1-c1csc(NCCc2ccccc2)n1	x	-41	0%	4.0	27	x	0.7
O=C(c1ccccc1Cl)N1CCn2c1nc1ccccc12	-0.9	2.8	x	6.6	0.1	i	0.68
O=C(CCNC(=O)c1ccc(Cl)cc1)Nc1ccccc1N1CCCC1	-10	x	x	u	-2.3	i	x
CC(C)c1nc(C#N)c(N2CCOCC2)o1	7.3	2.1	x	6.7	-0.9	i	0.7
Cc1ccccc1OCCNc1cc(N2CC(C)NC(C)C2)ccc1[N+](=O)[O-] (stereo unspecified)	38*	9.4	u	-0.3	0.9	i	0.79
CCC(=O)c1ccc(OCC(=O)OCC(=O)Nc2sccc2C(N)=O)cc1	-1.2	0.3	x	-0.4	0.1	i	0.69
COC(=O)c1cc(NC(=O)c2cccnc2)cc(C(=O)OC)c1	-4.3	-3.3	x	0.5	-1.5	i	0.71
Cc1cccc(C)c1OCCN1CCOCC1	-2.8	7.0	x	-3.2	0.9	i	0.67
O=C(NCC1CCCO1)c1ccc2c(=O)n(CC3CCCO3)c(=S)[nH]c2c1 (stereo unspecified)	x	4.7	0%	-1.5	2.9	x	0.72
CCSc1nnc(-c2ccc(S(=O)(=O)N3CCCC3)cc2)n1C	x	1.7	-2%	-8.9	2.0	x	0.68
COc1ccc(C(=O)NCCc2nnc3ccc(SCC(=O)Nc4cc(C)on4)nn23)cc1	3.2	0.5	3%	2.1	-2.0	i	0.7
CC(C)CNC(=O)c1ccccc1NC(=O)c1ccc(CSc2ccccc2)cc1	-4.2	1.2	x	-8.3	-2.7	i	0.75
O=C(Cc1ccc(F)cc1)N/N=C/c1ccc(-c2ccc(Cl)c(C(=O)O)c2)o1	-1.2	x	3%	0.2	-0.6	i	x
CCOC(=O)NC(=O)COC(=O)c1ccc(O)cc1	-0.4	-1.0	6%	8.9	1.3	i	0.71
COc1ccc(C(C)=O)cc1COc1cccc2cccnc12	-5.7	-1.7	0%	-1.3	0.3	i	0.68
CCOC(=O)C1CCN(C(=O)CN2C(=O)CSc3ccc(S(=O)(=O)N4CCOCC4)cc32)CC1	-0.1	1.6	-5%	1.0	0.4	i	0.69
CS(=O)(=O)N1CCN(c2ccccc2NC(=O)c2ccc3c(c2)OCCO3)CC1	-0.9	5.3	x	-2.2	3.2	i	0.66
Cn1sc(=O)c2cc(S(=O)(=O)NC3CC3)ccc21	-4.2	-0.6	-3%	0.3	2.0	i	0.69
COc1ccc(CCC(=O)Nc2nc(C)c(C(=O)N(C)C)s2)cc1	-2.8	1.9	x	7.7	0.6	i	0.7
O=C(COC(=O)c1cccnc1Cl)c1ccc(Cl)s1	-0.2	1.0	x	x	2.0	i	0.69
CCc1cccc(C)c1N=Cc1c(O)c2ccccc2oc1=O	3.9	3.9	x	-2.1	1.0	i	0.68
COc1cccc(N2CCN(C(=O)c3cc4c(s3)-c3ccccc3OC4)CC2)c1	4.3	-9.5	x	9.3	-2.4	i	0.78
COc1cc(S(=O)(=O)NCc2cccnc2)c(OC)cc1Br	x	0.0	2%	5.4	2.7	x	0.69
COc1ccc(C(=O)OC(C)C(=O)NC(C)CCc2ccccc2)cc1OC (stereo unspecified)	-49	5.5	-3%	0.5	-1.4	i	0.66
COc1cc(CCCN2C(N)=NC[C@H]2Cc2ccc(O)cc2)cc(OC)c1OC	4.0	0.1	0%	5.4	-2.3	i	x
O=C1Nc2cc(Cl)c(Cl)cc2N(O)N1c1cc(Cl)cc(Cl)c1	x	3.5	-6%	1.9	0.3	x	0.64
Cc1cccc(C(=O)Nc2nnc(-c3ccncc3)o2)c1	-11	2.9	14%	5.9	-0.6	i	0.71
CC1Sc2ccc(S(=O)(=O)NCCc3ccc(S(N)(=O)=O)cc3)cc2NC1=O (stereo unspecified)	2.1	1.0	-1%	2.3	0.9	i	0.65
COCCn1c(SCC(=O)Nc2cc(C)on2)nc2c(c1=O)SCC2	-0.3	8.7	-10%	1.9	-1.2	i	0.7
CCN(c1ccccc1)S(=O)(=O)c1cc(C(=O)Oc2ccc3c(C)cc(=O)oc3c2)ccc1C	x	-130	x	-3.6	-0.6	x	x
N#Cc1c2n(c(=S)n(-c3ccc(OC(F)F)cc3)c1=O)CCCCC2	1.9	2.8	7%	6.3	2.2	i	0.67
CCOC(=O)[C@H]1[C@H]2COc3ccc(Br)cc3[C@@H]2N2C(=O)[C@H](C)NC(=O)[C@@]12C	5.8	2.0	x	x	0.7	i	x
O=[N+]([O-])c1ccc(N2CCCC2)nc1N1CCCC1	15	x	21%	2.7	-1.9	i	x
O=S1(=O)C[C@@H](N2CCC[C@@H]2CO)[C@H](COCc2ccccc2)N1	-4.2	x	x	x	3.1	i	x
CCCn1ncc(CN2CCC(Cc3cccc(F)c3)(C(=O)OCC)CC2)c1C	-3.2	0.4	8%	3.2	9.5	i	0.63
CN(C)C(=O)CN1C(=O)c2cccc3cccc1c23	-14	-20	x	5.6	-0.2	i	0.68
O=C(Cc1nnc(NC(=O)c2ccccc2)s1)N/N=C/c1ccco1	-17	x	x	-2.3	4.3	i	x
Cc1ccc(/C=N/Nc2ccc(C(=O)O)cc2)s1	3.4	x	7%	5.4	-0.7	x	x
CC1(C)Cc2c(sc(NC(=O)Cc3ccccc3)c2C#N)C(C)(C)N1	4.6	x	-2%	x	0.3	i	x
COc1ccc(CCNC(=O)C2CC=CCC2C(=O)O)cc1 (stereo unspecified)	-0.4	-0.3	x	1.9	-0.5	i	0.7
O=C1CCN(Cc2ccccc2)C=C1c1ccc(Cl)cc1	-31	1.0	x	x	2.3	i	0.68
Cc1ccc(OCC(=O)NC(=S)Nc2cccc(NC(=O)c3ccc(Cl)cc3Cl)c2)cc1	x	2.5	x	-2.7	-2.2	x	0.66
[O-]/C(=C(\C(=S)NCc1ccc2c(c1)OCO2)[n+]1ccccc1)c1ccc(Cl)s1	0.6	4.3	11%	0.7	-2.6	i	0.69
C[C@@H]1CN([C@@H](C)CO)C(=O)c2cc(NS(C)(=O)=O)ccc2O[C@H]1CN(C)Cc1ccc(Oc2ccccc2)cc1	4.1&11	-48	x	x	5.2	i	0.78
O=C(Nc1ccccn1)c1ccc2ccccc2c1O	-2.9	-21	x	-1.8	-2.8	i	0.61
Cc1ccc(C(=O)NC(=S)N2CCN(C(=O)OC(C)(C)C)CC2)cc1Br	-5.6	1.1	6%	4.2	4.3	i	0.69
Oc1cccc(CN2CCOCC2)c1O	-1.7	-0.1	9%	x	0.4	i	0.7
COC(=O)c1ccc(NC(=O)CSC2=NCCN2)cc1	x	12	-2%	1.0	-1.6	x	0.74
CC(C)(C)C(=O)Nc1ccc(C(=O)N/N=C/c2ccccc2OC(=O)c2ccc(Cl)cc2Cl)cc1	x	x	-10%	2.7	-1.7	x	x
COc1cc(/C=N\NC(=O)c2ccccc2F)ccc1Oc1ccc([N+](=O)[O-])cn1	4.2	x	1%	-1.9	4.3	i	x
CCCCCCN1C[C@@H](O)[C@H](n2cc(COC(=O)c3ccccc3)nn2)C[C@@H]1c1ccc(OC)cc1	-1.1	x	1%	x	-0.4	i	x
COc1ccc(NC(=O)CN2CCN(CC(=O)Nc3ccccc3Cl)CC2)c(OC)c1	x	4.1	0%	0.8	-0.5	x	0.73
COc1ccccc1C(=O)NC(C)C(c1cccs1)N1CCN(C)CC1 (stereo unspecified)	x	3.2	12%	1.5	-4.1	x	0.65
O=C(N/N=C/c1cc(Br)c(Br)o1)c1cc2ccccc2o1	-3.2	x	x	-1.6	-1.9	i	x
COC(=O)[C@@]12C[C@@H](CC(=O)NCCc3ccccc3OC)C(=O)N(Cc3ccc4c(c3)OCO4)C1=CCC(C)(C)C2	1.6	x	x	x	0.8	i	x
COc1cccc(OC)c1C(=O)OCC(=O)N(C)c1ccccc1	0.9	4.7	1%	-4.0	3.8	i	0.63
O=C(NOC(=O)c1cc(Br)ccc1Cl)c1cccs1	x	2.7	1%	5.0	1.5	x	0.68
